From PubChem BioAssay
Autofluor counter = flagged as autofluorescent in microsphere protease counterscreen | AID 624483 | fluorescence intensity (test concentration not listed) | hit rate 3.1% among 360,000 | compound autofluorescence counterscreen, microsphere flow cytometry; hits give high values;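 active = at least 3 SD above the mean of all compounds, about 16000 in these data; inconclusive = too few beads counted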;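 note: 100 nL of 1 mM stock went into each well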
Sa RN4220 lethal = kills Staphylococcus aureus RN4220; inhibition, % (concentration not given with the values); S. aureus RN4220 growth, OD600, 16 h; hit rate 0.33% among 330,000;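 active = z-score of -3 or lower and OD600 up to 0.18 on both plates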;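 note: plate controls were untreated cells for no effect and reference antibiotic for full effect; stock transfer was 100 nL into about 80 µL; one replicate is shown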
BJeLR viability = kills HRASV12-expressing BJeLR cells | inhibition, % (concentration not given with the values) | hit rate 0.17% among 300,000 | BJeLR (HRASV12) viability, CellTiter-Glo ATP luminescence, 48 h; reference of the scale not given here;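 active = replicate mean above 50%; inconclusive = above 50% but judged a plate artefact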;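 note: 50 nL library stock added to about 25 µL; numbers are from one replicate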
ugtP null kill = kills S. aureus RN4220 lacking UgtP; growth inhibition, % (concentration not given with the values); hit rate 0.54% among 330,000; S. aureus RN4220 ugtP deletion, OD600 growth, 16 h; some inactives read as strong as hits; AID 1259309;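 active = z-score under -3 and OD600 up to 0.15 on both plates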;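 note: plate controls were untreated wells for no effect and antibiotic for full effect; wells of about 80 µL received 100 nL stock; the first replicate is given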
Mtb hypoxia inh = Mtb hypoxia fluorescent reporter inhibition; AID 1159583; hit rate 0.1% among 300,000; fluorescence inhibition, % (no concentration beside the values); M. tuberculosis hypoxia-regulated fluorescent reporter, fluorescence;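 active = 35 to 45% if threefold the growth effect, above 45% if 1.5-fold the growth effect; inactive = the rest, general growth blockers included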;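 note: wells of about 50 µL received 100 nL stock; 0% = vehicle wells and 100% = reference inhibitor wells; whole bacteria with a GFP reporter of the hypoxia response; strong numbers were not always called active; many hits fall short of the cut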
PrP UTR inh = suppresses PrP 5' UTR mRNA reporter expression; cell-based PrP 5' UTR mRNA reporter, plate reader; inhibition, % (concentration not given with the values); hit rate 0.35% among 340,000; AID 488862;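 active = every replicate at 50% or more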;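 note: 0 = median of the neutral control wells; tested in H4 reporter cells; numbers are from one replicate; inactives centre near -14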
Mtb hypoxia inh growth = recorded beside Mtb hypoxia inh, whose call it bears; growth inhibition, %; measured here: M. tuberculosis growth (absorbance);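 0% = vehicle and 100% = reference antibiotic; read after six days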
Numbers without * were called inactive; ? = inconclusive; · = no result given.

Molecule | Autofluor counter | Sa RN4220 lethal | BJeLR viability | ugtP null kill | Mtb hypoxia inh | Mtb hypoxia inh growth | PrP UTR inh
COc1ccc(NC(=O)CC2C(=O)NCCN2C(=O)c2ccc(Cl)cc2)cc1 (stereo not given) | 4244 | 3.0 | -7 | -3 | 0 | 10 | -22
CCc1ccc(C(=O)COC(=O)CNC(=O)c2cccs2)cc1 | 2618 | 6.0 | 5 | -2 | · | · | -19
Cc1ccc(C(=O)NCCc2nnc3c(C(F)(F)F)cc(Cl)cn23)o1 | 5040 | 0.3 | 9 | 0 | -5 | 3 | -4
COc1ccc(CCNC(=O)CSc2ccc(Br)cc2)cc1OC | 2210 | 4.2 | 1 | 5 | 2 | 2 | -16
O=C(CC1Sc2ccccc2NC1=O)NNc1ccc(F)cc1 (stereo not given) | 3681 | 1.6 | · | -5 | -4 | 4 | -4
CN(C)CCCC(=O)c1ccc2c(c1)OCO2 | 3220 | 6.4 | -8 | 9 | 1 | 7 | -8
CC1=C(C)CC(C(=O)NCCCN2CCCC2=O)C(C(=O)O)C1 (stereo not given) | 3975 | 4.1 | -8 | 3 | -4 | -2 | -4
O=C(C[n+]1cccc(C=NO)c1)N(Cc1ccccc1)Cc1ccccc1 | · | 2.1 | · | 8 | 7 | 1 | ·
Cn1c(CN2CCCC2)nc2cc(NS(=O)(=O)c3ccccc3)ccc21 | 6148 | 6.0 | -1 | 6 | 10 | 10 | -60
CCN1CCN(C(=S)NCc2ccc(C)cc2)CC1 | 1936 | 2.4 | 8 | 4 | 6 | 7 | -7
O=C(O)CCc1nn2c3ccccc3n(CCO)c2nc1=O | 2182 | 2.9 | -2 | 3 | -1 | 1 | -10
O=C(COc1ccc([N+](=O)[O-])cc1)Nc1ccc(S(=O)(=O)N2CCOCC2)cc1 | 3917 | 3.1 | -4 | 3 | 10 | 3 | -22
Cc1cccc2c1Sc1ccccc1CC2=O | 5303 | 2.9 | -2 | 0 | · | · | -9
O=C(COC(=O)c1nc(Cl)c(Cl)c(Cl)c1Cl)c1ccc[nH]1 | ? | 0.0 | 9 | -3 | 5 | 5 | -12
O=C(NCCc1ccco1)C(=O)NCC1OCCCN1S(=O)(=O)c1ccccc1 (stereo not given) | 5549 | -0.4 | -1 | -1 | 5 | 4 | -20
C=C(C)CSc1nc2ncccc2[nH]1 | 2814 | 1.8 | 1 | 2 | · | · | -4
CCC1(CC)C(=O)NC(=O)NC1=S | 3746 | 6.2 | · | 9 | 8 | 8 | -13
CCOc1ccccc1NC(=O)C(CC)Sc1nc2ccncc2[nH]1 (stereo not given) | 5698 | -0.6 | 7 | -1 | 1 | 8 | -18
COc1ccc(C2Nc3ccccc3C(=O)N2c2ccccc2)cc1CN1CCOCC1 (stereo not given) | 2233 | 0.9 | · | 1 | -4 | 5 | -26
O=C(Nc1cnc2ccccc2c1)c1cccnc1 | 5885 | -1.0 | 1 | 2 | 6 | 0 | -49

Going on with the list:
Molecule | Autofluor counter | Sa RN4220 lethal | BJeLR viability | ugtP null kill | Mtb hypoxia inh | Mtb hypoxia inh growth | PrP UTR inh
C=CCn1c(SCC(=O)Nc2ncc(Cc3cc(C(F)(F)F)ccc3Cl)s2)nnc1-c1ccncc1 | 13324 | 1.9 | -6 | 1 | 3 | -2 | -10
Cc1cc(C)nc(Nc2n[nH]c(COc3ccccc3)n2)n1 | 2394 | 1.0 | 3 | 6 | · | · | -52
COc1ccc(C(=O)NC2CC2)cc1OC1CCN(Cc2cc(C)c(C)cc2C)CC1 | 5556 | -1.8 | -6 | 2 | 14 | 9 | -24
COCCn1c(SCc2ccccc2)nc2c1c(=O)[nH]c(=O)n2C | 3878 | -0.4 | -5 | 15 | -1 | 8 | -20
O=C(Nc1ccc(N2CCCC2)c(Cl)c1)c1ccc(Br)o1 | 8308 | 1.4 | 9 | -14 | -5 | 11 | -79
OCc1c[nH]c(=S)n1CCOc1cccc(C(F)(F)F)c1 | 2963 | 1.6 | -3 | 5 | 12 | -5 | -23
O=C(CSc1ccccc1)N1CCN(S(=O)(=O)c2ccccc2F)CC1 | 4343 | 0.7 | 7 | -4 | -1 | -4 | 3
COc1ccccc1Cn1c(=S)[nH]c2cc(C(=O)N3CCCC3)ccc2c1=O | 4969 | 1.6 | -14 | 3 | 8 | -8 | -1
CCOC(=O)c1ccc(NC(=O)CN2C(=O)C(=O)N(CC(C)C)C2=O)cc1 | 5307 | -2.5 | 2 | 2 | 6 | 12 | -38
COc1cccc(/C=N/NC(=O)Cn2nc(C)c([N+](=O)[O-])c2C)c1O | 8985 | · | 13 | · | · | · | -9
CC1CCCC(NC(=O)Cc2ccc(Br)cc2)C1C (stereo not given) | 4601 | -6.0 | -2 | -11 | 12 | 30 | 4
CSC1=C(C#N)C(c2ccc(C(C)C)cc2)CC(=O)N1 (stereo not given) | 6104 | 7.3 | -5 | 12 | 11 | 3 | -27
COc1ccc(CN2CCNC(=O)C2CC(=O)O)c(OC)c1 (stereo not given) | 4276 | 2.1 | -12 | 5 | 4 | 13 | 14
CCOc1ccc(C2c3[nH]c4ccccc4c3CCN2CCCn2cccn2)cc1 (stereo not given) | 5247 | 4.0 | 5 | 19 | 2 | 5 | -28
Cc1nc2ccc(S(=O)(=O)Nc3cc(-c4nc5cccnc5s4)ccc3C)cc2s1 | 5695 | 18 | 9 | 16 | 9 | 2 | -34
CC(C)CN(C(=O)COC(=O)c1ccccc1Sc1ccccc1C#N)C1CCS(=O)(=O)C1 (stereo not given) | 2029 | 0.2 | -2 | -3 | 12 | 3 | 5
COc1ccc(/C=N/Nc2cc(C)nc(N3CCOCC3)n2)cc1 | 4650 | · | -8 | · | · | · | -14
CCOC(=O)C1CCN(C(=O)C2CCN(S(=O)(=O)CC)CC2)CC1 | 6147 | 6.3 | 2 | 3 | 5 | -3 | -14
COc1ccc(-c2nnc(SCC(=O)N3CCN(c4ccccc4)CC3)o2)cc1OC | 4250 | -0.4 | -3 | -1 | · | · | 6
CC(=O)Nc1cccc(Cl)c1C(=O)O | 4225 | 4.8 | -1 | 9 | · | · | -13

Nine entries from above, sorted by molecular weight, smallest number first.
Molecule | Autofluor counter | Sa RN4220 lethal | BJeLR viability | ugtP null kill | Mtb hypoxia inh | Mtb hypoxia inh growth | PrP UTR inh
CC(=O)Nc1cccc(Cl)c1C(=O)O | 4225 | 4.8 | -1 | 9 | · | · | -13
CSC1=C(C#N)C(c2ccc(C(C)C)cc2)CC(=O)N1 (stereo not given) | 6104 | 7.3 | -5 | 12 | 11 | 3 | -27
Cc1cc(C)nc(Nc2n[nH]c(COc3ccccc3)n2)n1 | 2394 | 1.0 | 3 | 6 | · | · | -52
CC1CCCC(NC(=O)Cc2ccc(Br)cc2)C1C (stereo not given) | 4601 | -6.0 | -2 | -11 | 12 | 30 | 4
COc1ccc(/C=N/Nc2cc(C)nc(N3CCOCC3)n2)cc1 | 4650 | · | -8 | · | · | · | -14
COc1cccc(/C=N/NC(=O)Cn2nc(C)c([N+](=O)[O-])c2C)c1O | 8985 | · | 13 | · | · | · | -9
CCOc1ccc(C2c3[nH]c4ccccc4c3CCN2CCCn2cccn2)cc1 (stereo not given) | 5247 | 4.0 | 5 | 19 | 2 | 5 | -28
COc1ccc(C(=O)NC2CC2)cc1OC1CCN(Cc2cc(C)c(C)cc2C)CC1 | 5556 | -1.8 | -6 | 2 | 14 | 9 | -24
COc1ccc(-c2nnc(SCC(=O)N3CCN(c4ccccc4)CC3)o2)cc1OC | 4250 | -0.4 | -3 | -1 | · | · | 6

Continuation:
Molecule | Autofluor counter | Sa RN4220 lethal | BJeLR viability | ugtP null kill | Mtb hypoxia inh | Mtb hypoxia inh growth | PrP UTR inh
COc1ccc(-n2cnnc2SCC(=O)Nc2nc(C)c(Cl)cc2Cl)cc1 | 3188 | 6.4 | 26 | 2 | · | · | -13
COc1cc(NS(=O)(=O)c2ccc(Nc3nc(-c4cccc([N+](=O)[O-])c4)cs3)cc2)nc(OC)n1 | 2577 | -1.5 | 3 | -21 | 0 | 9 | 16
Cc1cc(C(=O)NN=C2CC(=O)CC(C)(C)C2)c(C)o1 | 3648 | 4.0 | · | 0 | 4 | 8 | -17
CC(=O)CSc1nc(N(C)C)nc(N(C)C)n1 | 4604 | 1.5 | 3 | 4 | 1 | 4 | -13
O=C(Nc1ccc2nc(-c3cccs3)c(-c3cccs3)nc2c1)NC1CC1 | 6638 | -0.5 | 7 | -14 | 5 | 14 | -6
CCN(CC)C(=O)CSc1nc(-c2cccs2)cc(-c2cccs2)c1C#N | 3793 | 8.4 | -4 | -6 | -3 | 9 | 0
Cc1ccccc1CNC(=O)Cc1cccs1 | 2431 | 4.3 | -4 | 4 | 20 | 16 | -9
CC(=O)SC(C)CC(=O)Nc1ccccc1 (stereo not given) | 3860 | -2.4 | 2 | -1 | 10 | 7 | -19
O=C(CN1CCN(C(c2ccccc2)c2ccccc2)CC1)NC(=O)NCc1ccco1 | 4233 | -3.9 | -13 | -11 | 17 | 0 | -13
O=C(CSc1nc(C(F)(F)F)cc(=O)[nH]1)N1CCC(Cc2ccccc2)CC1 | 6266 | 4.9 | 3 | -2 | -3 | 12 | 17
Nc1nonc1-n1nnc(C(=O)NN=Cc2c(F)cccc2Cl)c1-c1ccc2c(c1)OCO2 | · | 23 | · | -9 | -5 | 0 | ·
Cc1ccccc1/C=N/Nc1ncnc2nc[nH]c12 | 3448 | · | -2 | · | · | · | -2
O=C(COC(=O)c1ccco1)Nc1ccc([N+](=O)[O-])cc1Cl | 9083 | 4.0 | · | 9 | 2 | 4 | -24
CS(=O)(=O)Oc1ccc(C=NNC(=O)c2ccncc2)cc1 | · | 4.9 | · | 6 | 8 | 13 | ·
Cc1c(CNC2CCC(C)CC2)c(C(=O)O)c(C)n1Cc1ccccc1 (stereo not given) | 2081 | -3.7 | -5 | -4 | 5 | 3 | -15
CCN(CC1CCCO1)C(=O)CCc1nnc(Cc2ccc3c(c2)OCO3)o1 (stereo not given) | 3362 | 0.6 | 0 | 4 | 8 | 3 | -30
COc1ccc(S(=O)(=O)N2CCN(C(=O)Cc3cccs3)CC2)cc1 | 2377 | 0.3 | 5 | 5 | -19 | -3 | -16
CCOC(=O)c1c(-c2ccc(-c3ccccc3)cc2)csc1NC(=O)C1C2CCC(O2)C1C(=O)O (stereo not given) | 4175 | 5.1 | 9 | -3 | · | · | -25
CC(C)C1(C2CCCC2)NC(=O)NC1=O (stereo not given) | 3458 | -2.2 | · | -4 | -4 | 5 | -22
O=C(OCC(=O)N1CCc2ccccc2C1)c1cccnc1Cl | 4087 | -3.0 | -17 | 7 | 13 | 7 | -30

Next results follow.
Molecule | Autofluor counter | Sa RN4220 lethal | BJeLR viability | ugtP null kill | Mtb hypoxia inh | Mtb hypoxia inh growth | PrP UTR inh
O=c1oc2ccccc2c2c1C(c1ccc(Cl)cc1)Nc1ccc3ccccc3c1-2 (stereo not given) | 2487 | · | 11 | · | · | · | -4
O=C(/C=C/Nc1ccc(F)cc1)c1ccc(Oc2ncccn2)cc1 | 3582 | -6.5 | -12 | -3 | 15 | 11 | -55
Cc1ccc(NCC(=O)c2ccc(C)cc2)cc1 | 3509 | 0.6 | 3 | 6 | 3 | 9 | -64
O=C(CCCC(=O)NN=Cc1ccccn1)NN=Cc1ccccn1 | · | 4.6 | · | 2 | 5 | 5 | ·
CC(CC(=O)Nc1ccc(N(C)C)cc1)=NNC(=O)c1ccc([N+](=O)[O-])cc1Cl | · | 6.7 | · | 9 | 2 | 17 | ·
Cc1cc2oc3c(c(=O)c2cc1C)C(c1ccc(F)cc1)N(CCCN1CCOCC1)C3=O (stereo not given) | 4342 | 1.4 | -2 | 9 | 6 | 7 | -35
Cc1cccc(N2CCN(C(=O)C3CCN(S(=O)(=O)c4cccc5nsnc45)CC3)CC2C)c1 (stereo not given) | 5881 | 2.3 | 0 | 5 | 0 | 8 | -13
CCCOC(=O)C1=C(C)NC2=C(C(=O)CC(C)(C)C2)C1c1ccc(N(C)C)cc1 (stereo not given) | 4447 | -2.7 | 7 | 6 | · | · | -8
O=C(Cc1cccs1)Nc1ccccc1NC(=O)Cc1cccs1 | 3138 | 1.3 | 6 | -3 | 8 | 3 | -3
